Six1-Eya2 inh: inhibitors of human Six1/Eya2 interaction | AlphaScreen GST-Six1/His-Eya2 binding, biochemical; active compounds read low; control for the full effect not named in the record | activity change, % (test concentration not listed) | actives 0.56% (n = 360,000) | AID 651725; in the data active = activity change below about -65%; inconclusive = about -30% to -65%; inactive = above about -30%; also: % is scaled to controls: 0 for no effect and ±100 for the full control effect
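Compounds are tested against tagged Six1 and Eya2 proteins bridged by glutathione donor and nickel acceptor beads; after a one-hour incubation at 37 °C without light, AlphaScreen emission is recorded.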
PINK1 modulator: changes PINK1 expression | PINK1 immunofluorescence, high-content cytometry, 24 h | Potency, µM (titrated, usually from 76.6 µM), inactives show top-dose activation (PINK1 increase), actives largely listed as activators | actives 0.2% (n = 410,000); active = well fitted activation curve with a large enough effect; inconclusive = small, poorly fitted or top-dose-only effect; inactive = flat fitted curve, though single readings scatter; cell line not stated here;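 also: potency is read from the fitted curve at half-maximal effect; % of control where 0% means no effect; nearly all actives have a fitted effect of over 65% in size; a mitochondrial uncoupler was the plate control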
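Measures PINK1 amount and localization on or inside mitochondria by immunofluorescence. Stable cells get compounds at 5 concentrations for 24 hours before fixation and staining; CCCP controls included.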
TRPML1 inh: blocks the human TRPML1 channel; AID 624415; actives 0.02% (n = 390,000); TRPML1-inducible cells, Ca2+ dye fluorescence, FDSS; active compounds read low; inhibition of EC80 agonist-evoked calcium signal; activity change, negative = inhibition, % (concentration not given with the values); in the data active means activity change below about -50%; inconclusive means about -30% to -50%; inactive means above about -30%;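 also: stimulus is agonist 54-4 at its EC80 concentration; % is scaled to controls: 0 for no effect and ±100 for the full control effect; the text of the record puts the active cut at -80%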
Target sequence (Q9GZU1 whole entry, looked up): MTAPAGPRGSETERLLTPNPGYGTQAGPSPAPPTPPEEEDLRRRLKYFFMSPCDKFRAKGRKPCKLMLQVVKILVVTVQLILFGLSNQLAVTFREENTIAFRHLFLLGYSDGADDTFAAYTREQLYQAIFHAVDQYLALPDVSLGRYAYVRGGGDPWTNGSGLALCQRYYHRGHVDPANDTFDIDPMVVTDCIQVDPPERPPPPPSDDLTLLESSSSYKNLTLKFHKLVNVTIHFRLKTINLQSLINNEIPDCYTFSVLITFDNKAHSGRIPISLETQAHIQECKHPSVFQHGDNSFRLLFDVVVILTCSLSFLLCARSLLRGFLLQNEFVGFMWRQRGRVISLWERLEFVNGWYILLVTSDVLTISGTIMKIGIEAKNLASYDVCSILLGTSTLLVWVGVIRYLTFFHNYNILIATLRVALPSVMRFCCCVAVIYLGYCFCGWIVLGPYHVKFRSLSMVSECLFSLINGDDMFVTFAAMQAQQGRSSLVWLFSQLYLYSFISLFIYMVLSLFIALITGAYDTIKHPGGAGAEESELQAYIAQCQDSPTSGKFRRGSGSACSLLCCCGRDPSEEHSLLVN
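TRPML1-DL cells, Tet-induced overnight (~16 h, 37 °C) at 1,500 cells/well, were loaded with Ca8 no-wash dye plus quencher for 45-90 min at room temperature. Compounds were pinned during FDSS kinetic reading; agonist 54-4 at EC80 (4 uM final) then added.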
D2 potentiator: positive allosteric modulators of human D2 dopamine receptor; P14416; DiscoveRx D2 beta-arrestin cells, luminescence, 90 min; 100% = 57 uM dopamine signal; potentiation, % (concentration not given with the values); actives 0.23% (n = 360,000); AID 624464; active = potentiation of 50% or more; inconclusive = 30% to 50%; inactive = 30% or less;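 also: compound concentration not given in the record; tested on top of an EC20 dose of dopamine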
Target sequence (P14416 whole entry, looked up): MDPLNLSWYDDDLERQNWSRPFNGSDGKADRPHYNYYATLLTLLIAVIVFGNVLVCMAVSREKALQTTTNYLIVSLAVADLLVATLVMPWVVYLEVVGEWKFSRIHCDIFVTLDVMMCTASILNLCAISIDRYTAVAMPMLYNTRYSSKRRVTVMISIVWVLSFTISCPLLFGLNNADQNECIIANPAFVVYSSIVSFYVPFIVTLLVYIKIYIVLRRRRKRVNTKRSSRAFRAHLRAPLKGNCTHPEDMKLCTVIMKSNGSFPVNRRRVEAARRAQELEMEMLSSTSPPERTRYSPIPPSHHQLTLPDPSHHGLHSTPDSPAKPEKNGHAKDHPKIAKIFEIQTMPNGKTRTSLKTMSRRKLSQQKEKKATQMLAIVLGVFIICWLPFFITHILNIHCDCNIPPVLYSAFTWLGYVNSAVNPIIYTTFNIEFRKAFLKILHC
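PathHunter D2 cells, attached overnight at 37 deg C, received compound in DMSO plus dopamine at EC20 (50 nM final) for 90 min at 37 deg C. Beta-arrestin recruitment was read as luminescence after 1 h with detection reagent at ambient temperature.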
TRPML1 ag: activates the human TRPML1 channel | Q9GZU1 | TRPML1-expressing cells, Ca2+ dye fluorescence, FDSS; host cell line not named in the record; reference of the full effect not given here | activation, % (test concentration not listed) | actives 0.12% (n = 410,000) | AID 624414; in the data active = activation above about 50%; inconclusive = about 30% to 50%; inactive = below about 30%; also: 0% is about no effect; the text of the record puts the active cut at 80%
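Kinetic FDSS Ca2+ read in Tet-induced TRPML1-DL cells (ABD Ca8 dye plus quencher, 45-90 min RT loading): baseline, then compound, then 110 s agonist window; EC80 agonist 54-4 at 4uM final added afterwards for a 110 s antagonist window.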
D2 ag: activates the human D2 dopamine receptor; P14416; DiscoveRx PathHunter D2 beta-arrestin, luminescence, 90 min; 100% = 57 uM dopamine signal; activation, % (test concentration not listed); actives 0.084% (n = 360,000); AID 624465; in the data active = activation above about 40%; inconclusive = about 15% to 40%; inactive = below about 15%; also: compound concentration not given in the record; the text of the record calls up to 30% inactive
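Agonist mode: compounds alone added to overnight-plated D2 PathHunter cells for 90 min at 37 C, with 57 uM final dopamine (EC100) defining full response. Beta-arrestin recruitment detected by chemiluminescent reagent, read after 1 h at ambient temperature.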
* = called active by the depositor; ? = inconclusive; nt = not tested or not shown; [ ] = another dose, or the depositor's remark.

SMILES	Six1-Eya2 inh	PINK1 modulator	TRPML1 inh	D2 potentiator	TRPML1 ag	D2 ag
O=C(NC(=S)Nc1cccc(C(F)(F)F)c1)c1ccc2nonc2c1	-18.6	17.0%	-4.5	-26.3	1.3	-9.2
COc1cc(=O)[nH]c(SC(C)C(=O)Nc2cccc3ccccc23)n1 (stereo unspecified)	-1.5	1.3%	6.2	3.6	0.4	-2.6
COC(=O)c1sccc1N/N=C/c1cccc(OC)c1O	-4.0	8.5%	7.3	-7.6	1.4	0.9
COc1ccccc1N1CCN(C(=O)CSc2n[nH]c(-c3ccccc3)n2)CC1	nt	2.1%	-15.5	nt	-0.1	nt
O=C(COc1ccccc1)N(Cc1cccs1)C1CCS(=O)(=O)C1 (stereo unspecified)	0.9	-1.1%	-12.8	-8.0	1.0	-4.3
CCC1(C)Cc2ccccc2C(Nc2c(C)n(C)n(-c3ccccc3)c2=O)=N1 (stereo unspecified)	3.2	0.3%	-11.3	-9.3	1.0	-1.0
O=C(CSc1nc2[nH]ncc2c(=O)[nH]1)c1ccccc1	-2.2	-1.2%	-13.3	-8.8	1.9	-4.1
CC1(C)Cc2cccc(OCC(O)CNCc3ccccn3)c2O1 (stereo unspecified)	?	-0.4%	9.2	-21.2	-0.6	-0.6
O=C(O)C1C2C=CC(C2)C1C(=O)Nc1ccc(C(=O)N2CCCCC2)c(Cl)c1 (stereo unspecified)	-21.6	-1.0%	15.9	9.6	-0.3	-5.4
CCN(CC)S(=O)(=O)c1ccc(N2CCOCC2)c(NS(=O)(=O)c2ccc(C)c(C)c2)c1	23.1	-0.4%	8.3	-16.3	1.0	0.2
CCOc1ccccc1NC(=O)CCn1c(=O)oc2ccccc21	4.7	-3.0%	-10.7	-5.7	0.6	-0.7
COc1ccc(CCNC(=O)CCCn2c(=O)c3ccccc3n(Cc3ccccc3)c2=O)cc1OC	nt	1.2%	-0.3	nt	4.0	nt
CC12C(=O)N(c3cccc4cccnc34)C(=O)C1C1C=CC2C1 (stereo unspecified)	4.6	0.3%	12.8	-2.6	0.4	-0.4
Cc1ccnc(SCc2cc(=O)c(OC(=O)c3ccc(S(=O)(=O)N4CCCC4)cc3)co2)n1	-14.9	-0.9%	12.7	6.7	-0.5	-3.8
Cc1[nH]c2ccccc2c1CCN(Cc1cccs1)C(=S)Nc1ccccc1	-19.1	5.6%	-5.0	-8.0	-0.9	-2.7
CCC(=O)OCC(=O)Nc1ccc([N+](=O)[O-])cc1OC	7.9	-0.5%	10.0	-6.2	-0.1	-1.8
O=C(NCc1ccc2c(c1)OCO2)Nc1ccc([N+](=O)[O-])cc1	1.7	8.2%	20.5	-27.1	3.1	-2.4
O=C(c1ccccc1Br)N1N=C(c2ccccc2)CC1c1ccccc1F (stereo unspecified)	-8.5	0.5%	13.3	-2.7	0.5	1.7
Cc1ccc(OCCNC(=O)Cn2cnc3c(=O)n(C)c(=O)n(C)c32)cc1C	2.2	0.2%	-10.4	-2.8	-0.1	-2.7
CCc1ccc(OC(C)C(=O)N(Cc2ccccc2)C2CCS(=O)(=O)C2)cc1 (stereo unspecified)	3.5	-0.2%	11.9	-3.9	-0.1	-7.1

(more compounds)
SMILES	Six1-Eya2 inh	PINK1 modulator	TRPML1 inh	D2 potentiator	TRPML1 ag	D2 ag
COc1ccc(N(CN2C(=O)c3ccccc3C2=O)C(=O)C(C)C)cc1	-2.5	-0.2%	16.0	2.4	-0.5	-3.5
COc1ccc(NC(=O)COC(=O)C23CC4CC(CC(O)(C4)C2)C3)cc1Cl	-1.8	1.8%	16.6	0.2	-0.9	-2.1
CC1(C)OC(=O)NC1c1ccccc1 (stereo unspecified)	14.2	-1.0%	21.6	-11.1	0.0	-5.2
O=C(NCCCN1CCCC1=O)c1cc2ccccc2o1	5.1	-1.1%	-8.0	-1.5	0.2	0.4
O=C(NCCOc1ccccc1)c1cc(C(=O)NCCOc2ccccc2)cc([N+](=O)[O-])c1	-18.3	1.5%	-9.2	1.3	1.9	2.9
CCOC(=O)c1c2ccccc2[n+]([O-])n1CCO	3.4	0.0%	-28.7	-43.8	-0.6	3.4
O=C1CN(C(=O)COC(=O)c2ccc(Cl)c(S(=O)(=O)N3CCCCC3)c2)c2ccccc2N1	-3.3	1.7%	17.4	1.2	-0.9	-1.1
CCCCNc1nnc(SCC(=O)c2c[nH]c3ccccc23)s1	-1.5	-2.2%	14.2	-4.9	0.1	0.6
CCOC(=O)c1c(N)sc2c1CCC1C(=O)N(C3CCCCC3)C(=O)C21 (stereo unspecified)	-0.5	-1.2%	-3.9	19.9	-0.1	-4.0
Cc1ccc(S(=O)(=O)N(Cc2ccc(Cl)cc2)c2ccccc2C(=O)NCc2ccco2)cc1	-1.9	16.9%	74.0	-11.7	0.4	-2.3
COc1ccccc1NC(=O)NCCCCc1ccccc1	-4.2	-0.8%	-3.8	-32.1	3.1	-6.9
Cn1c(SCC(=O)N2CCc3ccccc3C2)nnc1-c1ccncc1	3.8	-1.3%	16.3	-4.8	-0.6	0.2
CCOC(=O)C1=C(c2ccccc2)O/C(=C(\C(=O)OC)C(F)(F)F)S1	8.4	-0.4%	26.9	-10.1	1.1	-1.7
O=C(c1ccc(Br)cc1)c1cc(-c2ccccn2)c(N2CCOCC2)s1	7.0	8.9%	-10.3	-8.9	-0.8	-2.1
O=C(NCc1ccccc1)C(=O)NCC(c1ccco1)S(=O)(=O)c1ccc(Cl)cc1 (stereo unspecified)	nt	1.5%	0.0	nt	2.0	nt
CC(C)(C)OC(=O)NCCc1nnc(SCC(=O)Nc2cccc(Cl)c2)o1	3.8	-2.1%	8.8	-6.7	-1.4	2.6
CCNC(=S)Nc1cc(-c2ccc(Cl)cc2)[nH]n1	-6.9	-1.0%	20.7	5.4	3.1	7.1
COc1ccccc1C(=O)NCC(=O)N=Nc1c(O)n(C(C)C)c2ccccc12	-3.6	4.1%	0.0	-19.0	2.6	-13.5
COc1ccc2c(c1)c(CC(=O)Nc1nnc(C3CC3)s1)c(C)n2C(=O)c1ccc(Cl)cc1	-3.1	4.2%	25.3	5.9	1.8	9.2
COc1ccc(NC(=O)NNS(=O)(=O)c2ccc(OC)c(OC)c2)c(OC)c1	4.2	2.7%	-4.9	23.6	0.5	4.1

Continuation.
SMILES	Six1-Eya2 inh	PINK1 modulator	TRPML1 inh	D2 potentiator	TRPML1 ag	D2 ag
OC[C@H]1O[C@@H](c2nc(-c3ccccc3Br)no2)[C@H](O)[C@@H]1O	0.0	0.9%	nt	5.9	-0.5	-5.6
CCN1C(=O)CC(C(=O)OC)=C1C	5.4	-0.8%	1.9	-3.0	0.7	-1.4
Cc1c(NS(=O)(=O)c2cc(C(=O)NCc3cccnc3)ccc2Cl)c(=O)n(-c2ccccc2)n1C	3.0	2.1%	11.2	0.7	1.4	2.4
CC(C)Cn1c(N)c(C(=O)COC(=O)C2CCCN2C(=O)c2cccs2)c(=O)n(C)c1=O (stereo unspecified)	-0.1	0.3%	-2.9	9.8	-0.3	-1.4
CCN(CC)C(=O)[C@H]1C[C@H](CC(=O)NCCc2ccccn2)C(=O)N2CCc3c([nH]c4cc(-c5ccco5)ccc34)[C@]12C	-18.9	0.5%	-5.7	-4.9	-0.2	-1.7
O=C(Nc1ccc(F)cc1)c1nc[nH]c1C(=O)O	-76.9*	0.2%	5.4	-7.7	0.6	1.2
Cc1cc(NC2CCCC2)n2nc(C)c(-c3ccccc3)c2n1	26.5	16.6%	4.1	6.2	0.8	2.6
Cc1ccc(N(C(=O)NC2CCCCC2)C2=NCCCCC2)cc1	2.2	-1.2%	-5.8	-1.9	-0.3	-1.2
O=C1COc2c1ccc(O)c2O	-11.2	-0.2%	-3.1	-3.6	0.4	5.1
Cc1nnc(NC(=O)CCS(=O)(=O)c2ccccc2)s1	-1.6	-1.3%	2.5	-2.9	0.0	-1.4
N#Cc1ccc(OCc2c(-c3ccccc3)nnn2CC(=O)O)cc1	1.4	0.8%	10.5	-0.2	-0.4	-2.1
O=C(CCC(=O)NCCO)NCCO	3.8	-2.4%	4.6	-6.7	-0.6	-1.4
Cc1cc(C)n(-c2nnc(NCc3ccc(Cl)cc3)nn2)n1	-6.0	-0.3%	3.8	11.6	1.3	-4.1
Cc1cc(NC(=O)CCCC(=O)NCc2ccccc2)no1	?	-0.8%	-24.6	0.7	-0.6	-0.7
O=C(CSc1nnc(-c2cccs2)o1)NCC1CN(Cc2ccccc2)CCO1 (stereo unspecified)	-1.8	-0.5%[38.3 µM]	-12.7	-9.6	-0.8	-1.2
CC1=C(CCN2CCN(C(C)C)C(CCO)C2)C(C)(C)CCC1 (stereo unspecified)	-2.2	-0.6%	12.8	-5.7	-0.1	0.4
CCNC(=O)C(=O)NCCc1ccc(Cl)cc1	1.6	4.6%[38.3 µM]	3.5	-9.3	-0.2	-1.0
CC(=O)c1cccc(NC(=O)N2C3CCCC2CC(NC(=O)C2CC2)C3)c1 (stereo unspecified)	-3.2	-0.1%	-4.9	-1.4	0.3	-2.0
CCCOc1ccc(-c2nonc2NC(=O)c2oc3ccc(C)cc3c2C)cc1OCCC	nt	-0.7%	8.2	nt	0.3	nt
O=C(COc1ccc(Cl)cc1Cl)Nc1ccc(CN2CCOCC2)cc1	0.5	1.7%	3.3	-9.7	0.0	-1.2

The list goes on:
SMILES	Six1-Eya2 inh	PINK1 modulator	TRPML1 inh	D2 potentiator	TRPML1 ag	D2 ag
CCNC(=O)COc1ccc(Br)cc1Cl	-2.5	-1.1%	-5.6	-15.0	0.9	-3.4
O=C(NNC(=O)c1c(F)cccc1F)c1sccc1-n1cccc1	-3.9	-0.2%	-8.9	-11.2	0.7	-6.1
Cc1cccc(CN2CCc3c([nH]c4ccccc34)C2CC(C)C)n1 (stereo unspecified)	-9.5	5.1%	23.7	-9.8	-0.2	-1.0
CCCCn1c(N)c(N(CCOC)C(=O)CN2c3ccccc3CC2C)c(=O)[nH]c1=O (stereo unspecified)	-2.0	0.2%	-0.6	12.6	0.8	0.6
O=C(CSc1nnc(-c2ccc(OC(F)F)cc2)o1)NCc1cccs1	-6.4	1.2%	-3.8	-9.3	-0.1	-1.1

Bioassay records as filed in PubChem.
